Screens (PubChem)
A1 inh: blocks A1 activity. MEF A1-2A-BIM cells, caspase-Glo luminescence, 3 h; percent of clofoctol signal, DMSO as zero. caspase activation, % (no concentration beside the values). hit rate 0.51% among 21,000. AID 2241;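 active = most replicate scores above 10, or exactly half above 10 with mean activity above 10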;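 also: effector caspase 3 and 7 activity cleaving a DEVD luciferin substrate; 50 nL library stock added to about 30 µL; numbers are from one replicate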
BJeLR viab HTS: BJeLR cell viability reduction. BJeLR fibroblasts viability, CellTiterGlo ATP luminescence, 48 h; HRASV12, hTERT and SV40 LT/ST transformed. viability loss activity score, % (test concentration not listed). hit rate 0.64% among 30,000; in the data active = viability loss activity score above about 50%; about a fifth of its hits are not listed in these tables;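 also: higher score means fewer live cells and less ATP luminescence; stock transfer was 50 or 100 nL into about 30 µL; 0% = vehicle wells and 100% = a reference killing control; one replicate is shown; the record names a cut of 85%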
Numbers without * were called inactive; x = no result given. This is a subset, so the mix of outcomes need not match the whole.

1	Cc1noc(C)c1NC(=O)Nc1ccc2c(c1)C(=O)N([C@@H](C)CO)C[C@@H](C)[C@@H](CN(C)S(C)(=O)=O)O2
2	C[C@H](CO)N1C[C@H](C)[C@H](CN(C)C)Oc2ccc(NC(=O)NC3CCCCC3)cc2C1=O
3	O=C(NCCCN1CCN(c2ccc(F)cc2)CC1)c1cccn2c(=O)c3ccccc3nc12
4	Cc1cc(C(=O)Nc2cccc3c2O[C@@H](CN(C)Cc2ccc(-c4ccccc4)cc2)[C@@H](C)CN([C@H](C)CO)C3=O)n(C)n1
5	COc1ccc(OC)c(S(=O)(=O)NCc2cn3ccccc3n2)c1
6	COc1ccc(S(=O)(=O)N(C)C[C@@H]2Oc3c(NS(C)(=O)=O)cccc3C(=O)N([C@H](C)CO)C[C@H]2C)cc1

screen / no. | 1 | 2 | 3 | 4 | 5 | 6
A1 inh | 0.7 | 0.0 | x | x | -0.3 | x
BJeLR viab HTS | 4.8 | 3.4 | 2.6 | -1.2 | -4.9 | -2.2

7	CC(C)(C)N1CCN(C(C)(C)C)C1=O
8	O=c1[nH]c(/C=C2/C=Nc3ccc(Br)cc32)c(O)n1Cc1ccc(Br)cc1
9	CCSc1nc2n(n1)C(c1cccs1)C1=C(CCCC1=O)N2 (centres undefined)
10	Nc1c(S(=O)(=O)Cc2ccc(Cl)cc2)sc2nc3c(cc12)CCCC3
11	Cn1c(=O)c2cc(C(=O)N3CCCC3)sc2c2ccccc21
12	CC1CN(Cc2c(O)ccc3c(=O)c(-c4ccccc4)coc23)CC(C)O1 (centres undefined)

screen / no. | 7 | 8 | 9 | 10 | 11 | 12
A1 inh | 0.1 | x | x | 0.2 | x | x
BJeLR viab HTS | 3.3 | 4.8 | -2.3 | -5.2 | -4.3 | 2.8

13	CC1(C)Cc2ccccc2CN1C(=O)c1ccccc1
14	CCCNC(=O)Cn1ncn2c(cc3sc(CC)cc32)c1=O
15	CNC[C@H]1Oc2ccc(NS(C)(=O)=O)cc2C(=O)N([C@@H](C)CO)C[C@H]1C
16	COC(=O)C[C@H]1C(C)(C)C(=O)[C@@H]2C[C@@]3(O)C4=CC(=O)O[C@@H](c5ccoc5)[C@]4(C)CCC3[C@@]1(C)C2=O (some centres undefined)
17	O=C1CSc2ccccc2N1Cc1ccc(Cl)cc1
18	C[C@@H]1CN([C@@H](C)CO)C(=O)c2cc(NC(=O)Nc3ccccc3)ccc2O[C@@H]1CN(C)Cc1ccc(C(=O)O)cc1

screen / no. | 13 | 14 | 15 | 16 | 17 | 18
A1 inh | 0.7 | -0.4 | -0.4 | -0.1 | -0.4 | 1.2
BJeLR viab HTS | 1.0 | 0.2 | 5.5 | 2.8 | 11 | 2.2

19	COc1ccc(S(=O)(=O)Nc2ccc3c(c2)C(=O)N([C@H](C)CO)C[C@@H](C)[C@H](CN(C)S(=O)(=O)c2ccc(F)cc2)O3)cc1
20	COC(=O)c1sccc1NC(=S)N1CC(C)CC(C)C1 (centres undefined)
21	C[C@@H]1CN([C@@H](C)CO)C(=O)c2cccc(NC(=O)C3CCOCC3)c2O[C@H]1CN(C)Cc1ccc(Oc2ccccc2)cc1
22	CCOC(=O)C1CCCN(C(=O)c2cc3c(C)nc4ccccc4c3o2)C1 (centres undefined)
23	CC1(C)CC(=O)/C(=C/c2ccccc2)C(C)(C)N1
24	COC(=O)c1c(-c2c(Cl)cccc2Cl)noc1C(=O)NN

screen / no. | 19 | 20 | 21 | 22 | 23 | 24
A1 inh | 0.5 | x | x | x | 1.8 | 0.4
BJeLR viab HTS | 4.3 | -0.5 | -4.8 | 0.9 | 3.0 | -1.4

25	C[C@H](CO)N1C[C@H](C)[C@H](CN(C)Cc2ccc(C(=O)O)cc2)Oc2ccc(NC(=O)CCC(F)(F)F)cc2C1=O
26	O=C(Oc1cccc(NC(=O)c2cccs2)c1)c1cccc(S(=O)(=O)N2CCOCC2)c1
27	C=CCn1c(=O)c2c(nc3n2CCN3c2ccc(F)cc2)n(C)c1=O
28	COc1ccc(NC(=O)N(C)C[C@H]2Oc3ccc(NC(=O)Nc4ccc(C(F)(F)F)cc4)cc3C(=O)N([C@@H](C)CO)C[C@@H]2C)cc1
29	Cc1noc(C)c1S(=O)(=O)Nc1ccc2c(c1)C(=O)N([C@H](C)CO)C[C@H](C)[C@@H](CN(C)S(=O)(=O)c1cccs1)O2
30	C[C@H](CO)N1C[C@H](C)[C@H](CN(C)C(=O)Nc2cccc3ccccc23)Oc2ccc(NC(=O)Cn3cnnn3)cc2C1=O

screen / no. | 25 | 26 | 27 | 28 | 29 | 30
A1 inh | 1.0 | -3.1 | 0.1 | 0.2 | 0.7 | 0.4
BJeLR viab HTS | -1.3 | -3.7 | 5.5 | -1.0 | 0.7 | 0.3

31	C[C@@H]1CN([C@@H](C)CO)C(=O)c2cc(NC(=O)Nc3ccc4c(c3)OCO4)ccc2O[C@@H]1CN(C)Cc1ccc(Oc2ccccc2)cc1
32	CCn1cc2c(n1)-c1c(oc(C(=O)Nc3ccc(Cl)cc3)c1C)CC2
33	COc1ccc(CN(C)C[C@H]2Oc3c(NC(=O)c4ccncc4)cccc3C(=O)N([C@@H](C)CO)C[C@@H]2C)cc1
34	C[C@H]1CN([C@@H](C)CO)C(=O)c2cc(NS(=O)(=O)c3ccccc3)ccc2O[C@H]1CN(C)Cc1ccc(C(=O)O)cc1
35	COC(=O)c1nnn(CC(=O)N(Cc2ccccc2)c2ccc(Br)cc2)c1C(=O)OC
36	O=C(/C=C/c1ccccc1)c1ccc(O[C@@H]2O[C@H](CO)[C@@H](O)[C@H](O)[C@H]2O)cc1O

screen / no. | 31 | 32 | 33 | 34 | 35 | 36
A1 inh | -1.0 | -0.1 | x | 0.1 | x | -0.1
BJeLR viab HTS | 2.1 | -5.5 | -9.4 | -1.7 | 4.5 | -7.0

37	CC(C)NC(=O)N(C)C[C@@H]1Oc2ccc(NC(=O)CCCCCC(=O)Nc3ccccc3N)cc2C(=O)N([C@H](C)CO)C[C@@H]1C
38	O=C(Oc1ccc2c(=O)c(-c3ccccc3)coc2c1)N1CCOCC1
39	S=c1[nH]nc(-c2cccnc2)n1C1CCCCC1
40	CC(=O)N1CCOc2cc(S(=O)(=O)N(C)Cc3ccccc3)ccc21
41	Cc1cc(C(=O)Nc2cccc3c2O[C@@H](CN(C)S(=O)(=O)c2ccc(F)cc2)[C@H](C)CN([C@H](C)CO)C3=O)n(C)n1
42	C[C@@H]1CN([C@H](C)CO)C(=O)c2cccc(NS(=O)(=O)c3ccc(F)cc3)c2O[C@H]1CN(C)S(=O)(=O)c1ccccc1

screen / no. | 37 | 38 | 39 | 40 | 41 | 42
A1 inh | x | x | -1.0 | 0.2 | x | x
BJeLR viab HTS | 0.3 | 6.0 | 13 | -3.2 | 15 | -1.9

43	CCOC(=O)c1c(NC(=O)c2cc3ccccc3c(=O)o2)sc2c1CCCCCC2
44	CN([NH2+][O-])c1cc(O)ccc1O
45	C[C@@H]1CN([C@@H](C)CO)C(=O)c2cccc(NS(=O)(=O)c3ccccc3)c2O[C@H]1CN(C)C(=O)Nc1ccccc1
46	FC(F)(F)Oc1ccc(OCc2n[nH]c(=S)o2)cc1
47	C=CCN1CCc2c(cc(O)c(O)c2Cl)C(c2ccccc2)C1 (centres undefined)
48	CC(=O)N[C@H]1[C@H](O[C@H]2CC[C@@]3(C)C(CC[C@]4(C)C3CC=C3[C@@H]5CC(C)(C)CC[C@]5(C(=O)OC5OCC(O)C(O)C5O)C(O)C[C@]34C)C2(C)C)O[C@H](COC2OCC(O)C(OC3OCC(O)C(O)C3O)C2O)[C@@H](O[C@@H]2O[C@@H](C)[C@H](O)[C@@H](O)[C@H]2O[C@@H]2O[C@@H](C)[C@H](O)[C@@H](O)[C@H]2O)[C@@H]1O (some centres undefined)

screen / no. | 43 | 44 | 45 | 46 | 47 | 48
A1 inh | x | -0.5 | x | -0.7 | 0.3 | 35*
BJeLR viab HTS | 1.3 | -3.3 | 0.4 | 7.4 | -1.9 | 1.3

49	COc1ccc(S(=O)(=O)N(C)C[C@@H]2Oc3ccc(NS(=O)(=O)c4cn(C)cn4)cc3C(=O)N([C@@H](C)CO)C[C@@H]2C)cc1
50	C[C@H]1CN([C@@H](C)CO)C(=O)c2cc(NC(=O)C3CCCCC3)ccc2O[C@H]1CN(C)Cc1ccc2c(c1)OCO2
51	N#Cc1cccc(C(=O)Cc2cccc(Oc3ccccc3)c2)c1
52	CCOc1ccccc1C(=O)N1CC(C)N(C(=O)c2ccccc2OCC)CC1C (centres undefined)
53	C[C@H]1CN([C@@H](C)CO)C(=O)c2cc(NC(=O)Nc3ccc(C(F)(F)F)cc3)ccc2O[C@@H]1CN(C)Cc1ccc(Cl)c(Cl)c1
54	C[C@H](CO)N1C[C@H](C)[C@@H](CN(C)C(=O)Nc2ccc(F)cc2)Oc2ccc(NC(=O)c3ccncc3)cc2C1=O

screen / no. | 49 | 50 | 51 | 52 | 53 | 54
A1 inh | -0.5 | 0.9 | 0.0 | x | 0.2 | -0.4
BJeLR viab HTS | -2.2 | -2.7 | 3.9 | -0.6 | 1.6 | 0.1

55	CCN1CCCC(OC(=O)C(c2ccccc2)c2ccccc2)C1 (centres undefined)
56	O=C(O)CCC(=O)N1CCN(c2nc(-c3ccccc3)c3cc(Br)ccc3n2)CC1
57	COC(=O)c1ccc(Oc2ccc(Cl)cc2Cl)o1
58	CC(C)NC(=O)N(C)C[C@@H]1Oc2ccc(NC(=O)Nc3ccc4c(c3)OCO4)cc2C(=O)N([C@@H](C)CO)C[C@H]1C
59	C[C@H]1CN([C@@H](C)CO)C(=O)c2cc(N(C)C)ccc2O[C@H]1CN(C)S(=O)(=O)c1ccc(Cl)cc1
60	CCOc1ccc(-c2cc(CCCC(=O)NCCc3ccccc3)no2)cc1

screen / no. | 55 | 56 | 57 | 58 | 59 | 60
A1 inh | -0.4 | x | 0.1 | 0.8 | -0.4 | x
BJeLR viab HTS | -1.5 | -0.8 | 4.2 | 2.0 | -2.4 | -3.6

61	COc1cc(NC(=O)C(C)(C)C)ccc1Br
62	Cc1noc(C)c1NC(=O)Nc1ccc2c(c1)C(=O)N([C@@H](C)CO)C[C@H](C)[C@H](CN(C)S(=O)(=O)c1cccs1)O2
63	Cc1c(C)c2c(c(C)c1O)CCC(C)(C(=O)O)O2 (centres undefined)
64	CC1=C2C[C@@]3(C)[C@@H](CCC[C@@H]3C)C[C@@]2(O)OC1=O
65	C[C@H]1CN([C@@H](C)CO)C(=O)c2cc(NC(=O)Nc3ccc(F)cc3)ccc2O[C@@H]1CN(C)Cc1ccc(Cl)c(Cl)c1
66	COc1ccc(S(=O)(=O)N(C)C[C@@H]2Oc3ccc(NS(=O)(=O)c4c(C)noc4C)cc3C(=O)N([C@@H](C)CO)C[C@H]2C)cc1

screen / no. | 61 | 62 | 63 | 64 | 65 | 66
A1 inh | -0.3 | 0.2 | -0.1 | 1.3 | 0.6 | -0.5
BJeLR viab HTS | 4.6 | -3.4 | -1.2 | -2.4 | -0.3 | -7.5

67	CC(O)CCCC1Cc2cccc(O)c2C(=O)O1 (centres undefined)
68	CCN(CC)c1nc2c(C)cccn2c(=O)c1/C=N/O
69	C[C@H]1CN([C@@H](C)CO)C(=O)c2cccc(N(C)C)c2O[C@H]1CN(C)S(=O)(=O)c1cn(C)cn1
70	O=C1CN(C(=O)Cc2ccc(F)cc2)C(c2ccc(F)cc2)c2cc(F)ccc2N1 (centres undefined)
71	O=C(CSc1nccc(-c2csc(COc3ccccc3Cl)n2)n1)c1ccccc1
72	O=C(Oc1ccccc1N1CCOCC1)c1cccnc1Sc1ccc(Cl)cc1

screen / no. | 67 | 68 | 69 | 70 | 71 | 72
A1 inh | -0.3 | 0.9 | x | x | -3.6 | 0.6
BJeLR viab HTS | -3.8 | -2.1 | -0.3 | -1.3 | 2.2 | -1.1

73	S=C(Nc1ccc(Cl)cc1)N1CCN=C1Nc1ccc(Cl)cc1
74	O=C1OC2C(C(=O)O)Sc3c(sc(=O)n3-c3ccccc3)C2c2cc(Br)ccc21 (centres undefined)
75	C[C@H](CO)N1C[C@H](C)[C@@H](CN(C)CC2CCCCC2)Oc2ccc(NC(=O)Nc3cccc4ccccc34)cc2C1=O
76	Cc1csc(/C=C2\CCc3c(cnc4ccc5ccccc5c34)C2=O)c1

screen / no. | 73 | 74 | 75 | 76
A1 inh | -1.2 | -0.7 | -0.1 | -0.2
BJeLR viab HTS | -0.2 | 2.2 | 1.4 | -0.4
